VACV Venus inh: vaccinia inhibition (Venus reporter); Vaccinia virus Venus reporter expression, fluorescence; Potency, µM (series often up to 36.5 µM), for the others: top-dose activity change, negative = inhibition, actives largely listed as inhibitors; 0.46% of 330,000 active; AID 720580; active means well fitted inhibition curve with a large enough effect; inconclusive means small, poorly fitted or top-dose-only effect; inactive means no such curve, though single readings can be large or run the other way; tested in A549 cells; further: nearly all actives have a fitted effect of over 30% in size; inactives centre near -10
Vaccinia mCherry: inhibitors of vaccinia virus infection (mCherry reporter signal); Vaccinia virus mCherry reporter infection, fluorescence; about a quarter of the inactives have no number; Potency, µM (series often up to 36.5 µM), inactives show top-dose activity change, negative = inhibition, most hits filed as inhibitors; 0.63% of 310,000 active; AID 720579; active = well fitted inhibition curve with a large enough effect; inconclusive = small, poorly fitted or top-dose-only effect; inactive = no such curve, though single readings can be large or run the other way; tested in A549 cells; further: nearly all actives have a fitted effect of over 35% in size; inactives centre near -10
* = called active by the depositor; i = inactive; ? = inconclusive; . = not tested or not shown; & = joins results of further samples; [ ] = remark or other dose. On the % scale 0 is the no-effect control and ±100 the full control effect; potency means the concentration at half of the fitted maximal effect.

SMILES | VACV Venus inh | Vaccinia mCherry
Cc1ccc(Cn2c(CCNC(=O)C(C)C)nc3ccccc32)cc1 | 2.8% | -2.6%
Cc1nc(C)c(-c2csc(NCCc3ccccc3)n2)s1 | ? | ?
O=C(CN1CCCCC1)NN(Cc1ccccc1)c1ccccc1 | -7.2% | i
CC(=O)Nc1ccc(NC(=O)COC(=O)c2cc([N+](=O)[O-])ccc2N2CCOCC2)cc1 | -14.0% | -0.2%
COc1ccc(C2CC(c3c(-c4ccccc4)c4cc(Cl)ccc4[nH]c3=O)=NN2S(C)(=O)=O)cc1OC (centres undefined) | ? | .
CN(C)c1ccc(NS(=O)(=O)c2ccc(Cl)cc2)cc1 | -7.8% | 0.0%
O=C(Oc1ccc(N(Cc2cccs2)C2=NS(=O)(=O)c3ccccc32)cc1)c1ccco1 | -16.3% | .
Cc1cccc(-c2ccc(NC(=O)C3CCN(CC4CC4)CC3)cc2)c1 | -23.2% | -4.5%
COc1ccc(C)cc1NC(=O)N(Cc1ccc2c(c1)OCO2)C1CCN(Cc2ccccc2)CC1 | -15.8% | -27.9%
O=C(NCCNc1ccc([N+](=O)[O-])cc1)c1ccccc1Br | -15.9% | -13.6%
N#Cc1ccccc1OCC(=O)N1CCN(c2ccccc2)CC1 | 4.8% | -4.4%
CCOC(=O)Cc1csc(NC(=O)c2sc3nc4c(C)cc(C)cc4cc3c2N)n1 | 39.7%[activator] | -18.8%
c1ccc2c(-c3cnc4cccnn34)cncc2c1 | -0.1% | 20.1%
COCCNC(=O)C(OC(=O)c1cc2oc(C)cc2n1C)C(C)C (centres undefined) | -10.2% | i
CC(CN1CCCCC1)NC(=O)c1scnc1-c1ccccc1 (centres undefined) | -1.6% | 4.2%
Cc1ccc(NS(=O)(=O)c2cn(C)c(=O)n(C)c2=O)c(C)c1 | -2.2% | i
O=C1NC[C@@H](CCCCN2C[C@H](Cc3ccc(O)cc3)N(CCc3ccc(O)cc3)C(=O)C2=O)N(CCc2ccc(O)cc2)C1=O | 3.1% | 5.6%
NCC(O)c1ccc(O)cc1 (centres undefined) | -10.6%&-5.8% | -7.2%
Cn1cc(S(=O)(=O)NCCc2ccccc2)c(=O)n(C)c1=O | -3.4% | -1.8%
CC1(C)CC(=O)C=C(c2ccc(F)nc2)C1 | -25.8% | i
O=C(NCc1cccs1)c1nn2cccnc2c1Cl | ? | -7.4%
O=C(Cn1c(=O)c2sccc2n(Cc2ccc([N+](=O)[O-])cc2)c1=O)NCCc1ccccc1 | -23.9% | -19.6%
O=C(NCC1CCCO1)c1ccc(Cl)c(NS(=O)(=O)c2ccc(F)cc2)c1 (centres undefined) | -13.6% | -1.5%
CN(Cc1cnn(-c2ccccc2)c1)C(=O)c1cccc(S(=O)(=O)N(C)c2ccccc2)c1 | -27.9% | -8.7%
Cn1c(O)c(C(c2ccncc2)c2c(O)n(C)c(=S)n(C)c2=O)c(=O)n(C)c1=S | -3.8% | i
COc1ccc(NC(=O)CN2CCCCC2)c([N+](=O)[O-])c1 | -10.3% | i
CC(=O)/C(=N\Nc1ccccc1)Oc1ccc(Br)cc1 | -8.0% | -22.4%
CCCCNC(=O)CCCN1C(=O)CCn2nc(-c3cccn3C)cc21 | 4.8% | -10.3%
O=C(C1=C(O)C(=O)N(CC2CCCO2)C1c1ccccc1F)c1ccco1 (centres undefined) | 1.4% | i
CCOC(=O)C1C(=O)NC(N2CCOCC2)=NC1c1ccco1 (centres undefined) | -23.7% | .
CCOC(=O)c1c(C)cc(C)[nH]c1=O | -12.0% | -8.5%
COC(=O)c1cn(NC(=O)Cc2ccccc2Br)c(=O)c2ccccc12 | 0.1% | i
CC(=O)Nc1c(C)nn(-c2ccccc2)c1N1CCC(C(=O)Nc2ccc(F)cc2Cl)CC1 | -0.2%[7.34 µM] | -8.1%[7.34 µM]
COc1ccc(S(=O)(=O)n2nc(-c3cc(OC)c(OC)c(OC)c3)cc2N)cc1OC | -12.3% | -0.5%
CC1CN(c2nc3ccccn3c(=O)c2/C=C(\C#N)C(N)=O)CC(C)O1 (centres undefined) | 7.1% | i
COc1ccccc1OCC(=O)Nc1c(C(=O)c2ccc(F)cc2)oc2ccccc12 | ? | ?
CCc1nc2ccc(C(=O)NCCN3CCNC3=O)cn2c1N(CC)Cc1cccc(Br)c1 | -5.6% | -6.3%
Cc1ccc(-n2ccc(-c3nn(-c4ccccc4)ccc3=O)n2)cc1 | -9.1% | -3.0%
COc1ccc(N(C(C)=O)C2C=CS(=O)(=O)C2)c(OC)c1 (centres undefined) | -2.0% | -5.3%
Cc1ccc(NC(=O)c2ccc(C)c(S(=O)(=O)N3CCCCCC3)c2)cc1 | -12.9% | -1.3%
CCOc1ccc(OCCSc2nnnn2-c2ccccc2)cc1 | -24.5% | ?
CCCCn1c(O)c(N=NC(=O)c2ccco2)c2ccccc21 | -10.3% | ?
Cc1ccc(Cn2ccnc2SCC(=O)NCc2ccc(F)cc2)cc1 | -12.3% | -23.1%
CC(=O)Nc1ccc(C)c(NS(=O)(=O)c2cccc(C(F)(F)F)c2)c1 | -22.0% | i
CSc1ccc(OC2(C)CCN(Cc3ccc(OC(C)C)cc3)C2)cc1 (centres undefined) | -3.7% | 17.5%
COc1cccc(NP(=O)(Oc2ccccc2Cl)Oc2ccccc2Cl)c1 | ? | -17.3%
COC(=O)C(Cc1c[nH]c2ccccc12)N1CCS(=O)(=O)CC1 (centres undefined) | -3.2% | -17.9%
CC(=O)Nc1ccc(S(=O)(=O)Oc2ccc(/C=N/N=C3/NC(=O)C(CC(=O)O)S3)cc2)cc1 (centres undefined) | -7.3% | -7.2%
Cc1ccc(/C=N/N2CCCCC2)o1 | -17.0% | -13.2%
Cc1ccc(Cc2nnc(SCC(=O)Nc3ccccc3)[nH]c2=O)cc1 | -15.1% | -8.1%
Cc1ccc(SCc2c(C(=O)N/N=C/c3ccc(C)o3)nnn2-c2nonc2N)cc1 | ? | -20.6%
CCOC(=O)C(CC)Sc1nnc2cc(C)c3ccccc3n12 (centres undefined) | -5.2% | .
O=C1NC2(CCCC2)C(=O)N1CC(=O)N(Cc1ccccc1)c1ccccc1 | 0.4% | -12.4%
CCc1nc(N2CCC3(CC2)OCCO3)c2nnn(Cc3ccccc3)c2n1 | -11.4% | -23.9%
O=C(c1cc(COc2c(F)cccc2F)on1)N1CCSCC1 | -12.6% | i
CC(=O)c1ccc(NC(=O)C2CCC(C)(C(=O)O)C2(C)C)cc1 (centres undefined) | -1.4% | -3.8%
C=CCN1C(=O)/C(=C\c2cccs2)C(C(=O)OC)=C1C | -12.1% | -12.4%
CCn1c(=O)cc(OCC(=O)N2CCc3ccccc32)c2ccccc21 | -0.8% | -3.8%
COc1ccc(S(=O)(=O)N(Cc2ccccc2)Cc2nc3ccccc3c(=O)[nH]2)cc1 | -17.8% | .
O=C(CCN1CCN(Cc2ccccc2)CC1)NNC(=O)Nc1cccc([N+](=O)[O-])c1 | -26.8% | ?

Remaining list, next part
SMILES | VACV Venus inh | Vaccinia mCherry
Cc1ccc(C)c(C(=O)COC(=O)C2CCN(c3ccc(C(F)(F)F)cn3)CC2)c1 | -16.3% | -13.1%
O=C(COc1ccc(Br)cc1)Nc1ccccc1C(=O)N1CCOCC1 | -15.4% | i
CC(=O)N(c1ccc2oc(=O)sc2c1)S(=O)(=O)c1cccc2cccnc12 | -0.2% | 7.3%
COCn1ccnc1C(=O)c1ccco1 | -8.6% | i
O=C(NCc1ccncc1)C(=O)N/N=C/c1ccccn1 | -4.8% | -7.6%
CNc1ncnc2c1ncn2[C@H]1CN(CCN2CCOCC2)C[C@@H](CO)O1 | -1.8% | -2.9%
OC(CN1C2=NCCCN2c2ccccc21)c1ccc(Cl)cc1 (centres undefined) | -2.2% | i
Oc1c(C(c2ccc(Cl)cc2)N2CCC3(CC2)OCCO3)sc2nc(-c3ccco3)nn12 (centres undefined) | -8.3% | -8.3%
CCC(Sc1nc(C)cc(C)n1)C(=O)O (centres undefined) | -1.8% | -12.9%
Cc1ccc(NC(=O)N2CCN(S(=O)(=O)c3ccccc3)CC2)cc1 | -3.5% | -9.3%
Oc1ccc(/C=C/c2nc(-c3ccccc3O)n(-c3ccccc3)n2)c(O)c1 | -9.6%[7.34 µM] | -8.8%[7.34 µM]
CC(C)OC(=O)c1sc2nc3c(cc2c1N)C(=O)CCC3 | -12.8% | -13.9%
CCc1nc2c(OCc3cc(Cl)cc(Cl)c3)cccn2c1N(C)C(=O)c1ccc(C)cc1 | -12.3% | 20.0%
Cc1ccc(-c2nc3ccccc3c(=O)n2-c2ccc(O)cc2)cc1 | -21.6% | -0.2%
CCc1ccccc1S(=O)(=O)Cc1ccc(C(=O)NCc2ccc(Cl)cc2)o1 | -29.2% | ?
CC1CCCCN1C(=O)CSc1nnc(-c2cccc(Cl)c2)o1 (centres undefined) | -18.3% | -22.5%
CCOC(=O)C1=CN(Cc2ccc(OC)cc2)C=C(C(=O)OCC)C1c1cccs1 | -20.5% | ?
CCN1CCN(c2cc(C)c3cc(NC(=S)N4CCCC(C)C4)ccc3n2)CC1 (centres undefined) | -10.9% | ?
C/C(=N/NC(=O)c1ccoc1C)C12CC3CC(CC(C3)C1)C2 | 0.7% | .
Clc1ccccc1-c1nnc2n1-c1ccccc1SC2 | -12.4% | i
CC(=O)Nc1nonc1NC(=O)c1ccc(F)cc1 | -10.8% | -13.7%
COc1ccccc1NC(=O)CN(c1ccc(C(C)C)cc1)S(=O)(=O)c1c(C)noc1C | 3.0% | -4.3%
CCCS(=O)c1nc(C)cc(C)c1S(C)(=O)=O (centres undefined) | -14.9% | i
CCOC(=O)c1ccc(NC(=O)c2c(C)[nH]c(C(=O)OCC)c2C)cc1 | -9.0% | -18.6%

Compounds from the list above that have a COOH group:
SMILES | VACV Venus inh | Vaccinia mCherry
CC(=O)Nc1ccc(S(=O)(=O)Oc2ccc(/C=N/N=C3/NC(=O)C(CC(=O)O)S3)cc2)cc1 (centres undefined) | -7.3% | -7.2%
CC(=O)c1ccc(NC(=O)C2CCC(C)(C(=O)O)C2(C)C)cc1 (centres undefined) | -1.4% | -3.8%
CCC(Sc1nc(C)cc(C)n1)C(=O)O (centres undefined) | -1.8% | -12.9%

Following part:
SMILES | VACV Venus inh | Vaccinia mCherry
Cn1c(NC(=O)c2cc(Cl)ccc2Cl)cc(=O)n(C)c1=O | -3.9% | -12.2%
COc1ccccc1CNC(=O)C(=O)NCC1CCCN1S(=O)(=O)c1cc(C)ccc1C (centres undefined) | -11.7% | -6.1%
CCOC(=O)c1sc(NC(=O)/C=C/c2ccc(C(C)C)cc2)c(C(=O)OCC)c1C | -1.0% | -7.3%
CSc1ccc(CN2C(=O)C(C)Sc3ccc(C(C)=O)cc32)cc1 (centres undefined) | -9.0% | i
CN(C)C(=O)C1C2NC(=S)N(c3ccccc3)C1(C)Oc1ccccc12 (centres undefined) | -8.7% | -2.5%
COCCN1Cc2cccc(C(=O)Nc3ccc(S(=O)(=O)N4CCCCC4)cc3)c2C1=O | -12.4% | i
COc1ccc(N2CCN(C(=O)CCCC3=NS(=O)(=O)c4ccccc4N3)CC2)cc1 | ? | i
CN(C)c1ccc(/C=C/c2nnnn2-c2ccccc2)cc1 | -13.6% | -23.7%
O=C(NCCCO)c1cc2ccccc2[nH]1 | -1.3% | i
O=C1OC[C@H]2CCCN2C(=O)[C@@H](CC(=O)N(CCO)Cc2ccccc2)C/C=C\CC[C@H]1Cc1ccc(F)cc1 | -27.4% | -21.9%
CCN1CCCC1Cn1cnc2c([nH]c3ccc(Cl)cc32)c1=O (centres undefined) | -5.0% | .
COC(=O)[C@@]12C[C@@H](CC(=O)N3CCCC3)C(=O)N(Cc3ccc4c(c3)OCO4)C1=CCC(C)(C)C2 | -0.9% | -13.2%

Reprinted from the part before: 5 entries, then new ones.
SMILES | VACV Venus inh | Vaccinia mCherry
CN(C)c1ccc(/C=C/c2nnnn2-c2ccccc2)cc1 | -13.6% | -23.7%
O=C(NCCCO)c1cc2ccccc2[nH]1 | -1.3% | i
O=C1OC[C@H]2CCCN2C(=O)[C@@H](CC(=O)N(CCO)Cc2ccccc2)C/C=C\CC[C@H]1Cc1ccc(F)cc1 | -27.4% | -21.9%
CCN1CCCC1Cn1cnc2c([nH]c3ccc(Cl)cc32)c1=O (centres undefined) | -5.0% | .
COC(=O)[C@@]12C[C@@H](CC(=O)N3CCCC3)C(=O)N(Cc3ccc4c(c3)OCO4)C1=CCC(C)(C)C2 | -0.9% | -13.2%
Cc1ccc(S(=O)(=O)N2CCC(C(=O)Nc3ccc(C)c(Cl)c3)CC2)cc1 | -11.2%[7.34 µM] | -14.3%[7.34 µM]
CCOC(=O)c1cc(-c2ccccc2)nn1CC1CC(c2cccc([N+](=O)[O-])c2)=NO1 (centres undefined) | -30.0% | -5.0%
Cc1ccc(-c2nc3cnccn3c2Nc2ccc(C(C)C)cc2)o1 | -7.1% | -8.9%
CCOC(=O)COc1ccc(C(=O)CC)cc1OC | -6.3% | -0.2%
CCCCC[C@@H]1C=C(C(=O)O)[C@H](c2cccc(C)c2)N1S(=O)(=O)c1ccc(C)cc1 | 2.5% | 3.1%
C[C@H]1O[C@@H](O[C@H]2[C@@H](O)C[C@H](O[C@H]3[C@@H](O)C[C@H](O[C@H]4CC[C@@]5(C)[C@H](CC[C@@H]6[C@@H]5C[C@@H](O)[C@]5(C)[C@@H](C7=CC(=O)OC7)CC[C@]65O)C4)O[C@@H]3C)O[C@@H]2C)C[C@H](O)[C@@H]1O | 0.282µM* | ?
COc1cc(OC)cc(-c2cc(NC(C)=O)n[nH]2)c1 | -6.7% | 11.4%
Cc1ccc(Nc2nc(-c3ccccc3)c(CC(=O)O)s2)cc1 | -22.0% | ?
S=C(NCCc1ccccc1)NC1CCCCCC1 | -14.0% | -0.1%
C=CCOC(=O)C1=C(C)N=C2SCCC(=O)N2C1c1cccs1 (centres undefined) | -9.3% | .
